Screens deposited in PubChem by Broad Institute.
BJeLR viability = lowers viability of BJeLR cells. BJeLR fibroblasts viability, CellTiterGlo ATP luminescence, 48 h; HRASV12, hTERT and SV40 LT/ST transformed. viability loss activity score, % (no concentration beside the values). 0.64% of 30,000 active. AID 2275; in the data active = viability loss activity score above about 50%; inconclusive = no clear call, values can overlap the other calls; inactive = below about 35%; about a fifth of its hits are not listed in these tables;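 note: higher score means fewer live cells and less ATP luminescence; stock transfer was 50 or 100 nL into about 30 µL; 0% = vehicle wells and 100% = a reference killing control; one replicate is shown; the record names a cut of 85%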
A1 inh = inhibitors of A1; MEF A1-2A-BIM cells, caspase-Glo luminescence, 3 h; percent of clofoctol signal, DMSO as zero; caspase activation, % (test concentration not listed); 0.51% of 21,000 active;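 active = most replicate scores above 10, or exactly half above 10 with mean activity above 10; inconclusive = mean activity below 10 while half the replicates exceed 10; inactive = most replicate scores below 10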;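 note: effector caspase 3 and 7 activity cleaving a DEVD luciferin substrate; 50 nL library stock added to about 30 µL; numbers are from one replicate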
Active calls of the source: *; ? = inconclusive; . = no result given; & = joins results of further samples.

compound,A1 inh,BJeLR viability
C[C@H]1CN([C@@H](C)CO)C(=O)c2cc(NC(=O)NC3CCCCC3)ccc2O[C@H]1CN(C)Cc1ccc(C(F)(F)F)cc1,-0.9,-7.0
COC(=O)C1=C(C)N(C(C)c2ccccc2)C(=O)/C1=C\c1ccco1 (stereo not given),.,1.9
C[C@H]1CN([C@@H](C)CO)C(=O)c2cc(NS(=O)(=O)c3ccc(Cl)cc3)ccc2O[C@@H]1CN(C)Cc1ccc(Cl)c(Cl)c1,-0.1,-2.7
COc1ccc(S(=O)(=O)N(C)C[C@H]2Oc3ccc(NS(=O)(=O)c4c(C)noc4C)cc3C(=O)N([C@@H](C)CO)C[C@@H]2C)cc1,0.2,-0.6
C[C@@H]1CN([C@@H](C)CO)C(=O)c2cc(NC(=O)Nc3cccc4ccccc34)ccc2O[C@@H]1CN(C)C(=O)NC1CCCCC1,0.0,-1.4
N#Cc1ccc(N2C(=O)c3ccccc3C2=O)cc1,0.8,-9.6
C[C@H](CO)N1C[C@H](C)[C@@H](CN(C)C(=O)Nc2ccc3c(c2)OCO3)Oc2ccc(NC(=O)CCCN(C)C)cc2C1=O,-0.4,1.4
COc1ccc2c(=O)c(Oc3cc(C)ccc3C)coc2c1,-0.2,1.9
CCOc1ccc2c(c1)-c1c(ssc1=S)C(C)(C)N2C,0.2,1.3
O=C(COn1c(=O)n(COC(=O)c2ccccc2)c2ccccc21)c1ccccc1,-0.2,-3.2
CC(C)/C(=N/O)c1ccccc1,-0.2,1.4
COc1ccc(CN(C)C[C@@H]2Oc3ccc(NS(C)(=O)=O)cc3C(=O)N([C@@H](C)CO)C[C@@H]2C)cc1,-0.2,-8.4
COc1ccc(S(=O)(=O)Nc2ccc3c(c2)C(=O)N([C@H](C)CO)C[C@@H](C)[C@H](CN(C)C(=O)Nc2ccc(C(F)(F)F)cc2)O3)cc1,0.9,0.8
CCc1nc2ccccc2n1CCC(N)=O,0.6,2.9
CCOC(=O)C1(CCC#N)C(=O)C=C(c2ccc(OC)cc2)CC1c1ccc2ccccc2c1 (stereo not given),.,6.3
C[C@H]1CN([C@@H](C)CO)C(=O)c2cc(NC(=O)Cc3ccccc3)ccc2O[C@@H]1CN(C)C(=O)Nc1ccc(C(F)(F)F)cc1,1.6,-2.6
COC(=O)CNC(c1ccccc1)c1cc(Br)ccc1NC(=O)c1ccccc1Cl (stereo not given),0.8,-4.9
C[C@H]1CN([C@@H](C)CO)C(=O)c2cccc(N(C)C)c2O[C@@H]1CN(C)Cc1ccc(Cl)c(Cl)c1,.,-0.2
COc1ccc(C2OCC3C(c4cc(OC)c5c(c4)OCO5)OCC23)cc1OC (stereo not given),-1.5,1.3
C[C@H]1CN([C@@H](C)CO)C(=O)c2cc(NS(=O)(=O)c3ccccc3)ccc2O[C@H]1CN(C)Cc1ccc(C(=O)Nc2ccccc2N)cc1,.,3.7

Rewritten with two lines to a compound: four of the compounds above
Fields – A1 inh | BJeLR viability
O=C(COn1c(=O)n(COC(=O)c2ccccc2)c2ccccc21)c1ccccc1
 : -0.2 | -3.2
COc1ccc(CN(C)C[C@@H]2Oc3ccc(NS(C)(=O)=O)cc3C(=O)N([C@@H](C)CO)C[C@@H]2C)cc1
 : -0.2 | -8.4
C[C@H](CO)N1C[C@H](C)[C@@H](CN(C)C(=O)Nc2ccc3c(c2)OCO3)Oc2ccc(NC(=O)CCCN(C)C)cc2C1=O
 : -0.4 | 1.4
C[C@H]1CN([C@@H](C)CO)C(=O)c2cc(NC(=O)NC3CCCCC3)ccc2O[C@H]1CN(C)Cc1ccc(C(F)(F)F)cc1
 : -0.9 | -7.0

More structures:
compound,A1 inh,BJeLR viability
C[C@H](CO)N1C[C@H](C)[C@H](CN(C)Cc2ccccc2)Oc2c(NC(=O)Nc3ccccc3)cccc2C1=O,.,-7.6
Cc1ccccc1Cn1c2ccccc2c2cnn(CC(=O)N3CCCC3)c(=O)c21,-0.2,-2.7
C[C@@H]1CN([C@@H](C)CO)C(=O)c2cccc(NC(=O)c3cnccn3)c2O[C@@H]1CN(C)S(=O)(=O)c1cn(C)cn1,.,2.4
O=c1c2ccccc2nc(-c2ccccc2)n1OCc1ccc(Br)cc1,0.5,-2.1
COc1ccc(CN(C)C[C@@H]2Oc3c(NC(=O)Nc4ccc(OC)cc4)cccc3C(=O)N([C@@H](C)CO)C[C@@H]2C)cc1,.,0.6
Cc1noc(C)c1NC(=O)N(C)C[C@@H]1Oc2c(NS(=O)(=O)c3ccccc3)cccc2C(=O)N([C@@H](C)CO)C[C@@H]1C,.,-12.8
Cc1nnsc1C(=O)Nc1ccc(CN2CCS(=O)(=O)CC2)cc1,0.2,2.6
CCOC(=O)CC1Sc2ccccc2N=C1SCC(=O)Nc1ccc(Cl)cc1Cl (stereo not given),-0.9,4.0
C[C@H]1CN([C@@H](C)CO)C(=O)c2cc(NC(=O)CCN3CCOCC3)ccc2O[C@@H]1CN(C)C,1.3,0.0
O=C(O)CCn1cc(C(F)(F)F)ccc1=O,0.0,-1.1
C[C@@H]1CN([C@H](C)CO)C(=O)c2cccc(NC(=O)c3ccncc3)c2O[C@H]1CN(C)C(=O)Nc1ccc2c(c1)OCO2,.,-0.5
CCCC(C)NC(=O)N1CCOCC1 (stereo not given),-0.5,-3.7
O=C1NCCCCC1NS(=O)(=O)c1cccc2ccccc12 (stereo not given),-0.1,0.7
CC1(C)CCc2cc(-c3ccn(S(=O)(=O)c4ccc(Cl)cc4)n3)ccc2O1,-0.2,8.1
CC(=Nc1ccc(C)cc1C)c1sc2ccccc2c1O,-4.6,4.7
O=C(Oc1ccc2cc(OC(=O)c3ccccc3)ccc2c1)c1ccccc1,0.1,-2.0
O=C(c1ccncc1)N1c2ccccc2Sc2ccccc21,0.5,6.4
O=C(NCC1CCCO1)c1ccc2c(Cl)c3c(nc2c1)CCCC3 (stereo not given),.,-4.2
Cc1cc(C(=O)Nc2cccc3c2O[C@@H](CN(C)Cc2ccc(C(=O)O)cc2)[C@H](C)CN([C@H](C)CO)C3=O)n(C)n1,.,3.6
Cc1ccc(C2=NNC(c3cccc(C)n3)S2)cc1 (stereo not given),.,2.5
O=C(Nc1ccccc1N1CCOCC1)NC1CCN(C(=O)OCc2ccccc2)CC1,0.5,-2.4
CSc1sc(/C(C)=N\O)c2c1/C(=N\O)CC(C)(C)C2,-0.3,4.8
COc1ccc(S(=O)(=O)N(C)C[C@H]2Oc3c(NC(=O)Nc4cccc5ccccc45)cccc3C(=O)N([C@H](C)CO)C[C@@H]2C)cc1,.,-1.9
CN(C)/C=C1\N=C(SCc2c(Cl)cccc2Cl)NC1=O,0.4,0.8
COc1cccc(NC(=O)c2ccc(OC(=S)N3CCC(C)CC3)cc2)c1,-0.5,4.1
Cc1noc(C)c1NC(=O)Nc1cccc2c1O[C@@H](CN(C)Cc1ccccc1)[C@@H](C)CN([C@@H](C)CO)C2=O,.,-1.7
C[C@@H]1CN([C@@H](C)CO)C(=O)c2cc(NC(=O)Cc3ccccc3)ccc2O[C@H]1CN(C)Cc1ccccc1,0.7,2.1
C[C@H]1CN([C@@H](C)CO)C(=O)c2cc(NC(=O)C3CC3)ccc2O[C@@H]1CN(C)S(C)(=O)=O,-0.5,-4.9
Cc1noc(C)c1S(=O)(=O)Nc1ccc2c(c1)C(=O)N([C@H](C)CO)C[C@H](C)[C@@H](CN(C)Cc1ccc3c(c1)OCO3)O2,0.4,-0.3
C[C@@H]1CN([C@@H](C)CO)C(=O)c2cccc(NC(=O)c3ccc(-c4nccs4)cc3)c2O[C@H]1CN(C)C(=O)Nc1ccc(F)cc1,.,-3.0
C[C@H](CO)N1C[C@H](C)[C@H](CN(C)Cc2ccncc2)Oc2c(NS(C)(=O)=O)cccc2C1=O,.,6.0
CCn1nccc1C(=O)Nc1cc(Cl)ccc1Cl,.,-1.1
CC(C)NC(=O)Nc1ccc2c(c1)C(=O)N([C@H](C)CO)C[C@@H](C)[C@@H](CN(C)C)O2,-0.3,-0.5
C[C@@H]1CN([C@H](C)CO)C(=O)c2cccc(NC(=O)C3CCCCC3)c2O[C@H]1CN(C)S(C)(=O)=O,.,1.1
C[C@H]1CN([C@@H](C)CO)C(=O)c2cc(NS(=O)(=O)c3cn(C)cn3)ccc2O[C@@H]1CN(C)Cc1ccc(C(=O)Nc2ccccc2N)cc1,.,2.9
COc1cc(OC)c2nc(C)c3c(c2c1)CN(C(=O)Nc1ccccc1)C3,-0.1,2.6
C[C@H](CO)N1C[C@H](C)[C@@H](CN(C)C(=O)Nc2ccc(F)cc2)Oc2c(NC(=O)Nc3ccc(C(F)(F)F)cc3)cccc2C1=O,.,1.1
C[C@H]1CN([C@@H](C)CO)C(=O)c2cccc(NC(=O)c3ccncc3)c2O[C@@H]1CN(C)C(=O)Nc1ccc(F)cc1,.,9.3
COc1ccc2[nH]c3c(=O)n(CC(=O)N(C)Cc4ccccc4)c(=S)[nH]c3c2c1,?,-5.5
C[C@@H]1CN([C@H](C)CO)C(=O)c2cccc(N(C)C)c2O[C@H]1CN(C)C(=O)Nc1ccc2c(c1)OCO2,.,-8.8
CN(C)/C=C1\SC(=O)N(c2ccccc2)C1=O,.,-0.7
C[C@@H]1CN([C@H](C)CO)C(=O)c2cc(NC(=O)Cc3ccccc3)ccc2O[C@@H]1CN(C)S(=O)(=O)c1cccs1,0.1,3.5
Cc1ccc(CNC(=O)CN(C)S(=O)(=O)c2cccs2)cc1,.,-1.1
C[C@H](CO)N1C[C@H](C)[C@H](CN(C)C(=O)NC2CCCCC2)Oc2ccc(NC(=O)Nc3ccc(C(F)(F)F)cc3)cc2C1=O,-0.4,-7.3
Cc1c(Nc2ncccc2C(=O)O)cccc1C(F)(F)F,-2.2&-0.7,-1.3&2.1
Cc1ccc(C(=NCc2ccccc2)NC#N)cc1,0.2,-1.3
COc1ccc2[nH]c3c(=O)n(CCC(=O)NC4CCCCCC4)c(=S)[nH]c3c2c1,1.1,-3.4
COc1ccc(CCNC(=O)c2ccc3nc4ccc(Cl)cc4c(=O)n3c2)cc1OC,0.8,-0.7
O=C(Cc1cc(F)cc(F)c1)Nc1ccc(F)cc1,-1.1,2.8
CC(C)(C)c1ccc(Oc2ncccc2C(=O)O)cc1,0.9,-4.2
CCOC(=O)N1CCN(C(=O)c2ccc3c(c2)ncn3C2CCCC2)CC1,0.3,-2.2
Cc1ccnc(N)c1,-0.4,-2.5
Cc1ccc(S(=O)(=O)N(C)C[C@H]2Oc3c(NS(=O)(=O)c4cccs4)cccc3C(=O)N([C@H](C)CO)C[C@H]2C)cc1,.,-3.5
C[C@H](CO)N1C[C@H](C)[C@@H](CN(C)CC2CC2)Oc2ccc(NS(=O)(=O)c3cn(C)cn3)cc2C1=O,0.7,-0.7
Cc1ccc(S(=O)(=O)N(CC(=O)Nc2cccnc2)c2cc(C)cc(C)c2)cc1,0.2,-1.9
C[C@@H]1CN([C@H](C)CO)C(=O)c2cc(NC(=O)CCC(F)(F)F)ccc2O[C@@H]1CN(C)Cc1ccc(-c2ccccc2)cc1,0.5,-2.1
Cc1cc(C)c(N=c2scc(C)n2Cc2ccccc2)c(C)c1,0.6,3.5
Cc1noc(C)c1NC(=O)Nc1ccc2c(c1)C(=O)N([C@H](C)CO)C[C@@H](C)[C@@H](CN(C)Cc1ccc(C(=O)O)cc1)O2,0.6,1.3
COC(=O)C[C@H]1C(C)(C)[C@H](OC(C)=O)[C@]2(O)CC3=C4CC(=O)O[C@@H](c5ccoc5)[C@]4(C)CCC3[C@@]1(C)C2=O (stereo not given in full),-0.1,-2.6
Cc1cc(Cl)ccc1OCCCC(=O)NC1CCSC1=O (stereo not given),1.8,8.6

Additional results follow.
compound,A1 inh,BJeLR viability
CCCNC(=O)c1cc2c(s1)CS(=O)(=O)C2,0.7,0.1
C/C(=C\CC[C@@H](C)[C@H]1CC(O)[C@@]2(C)C3CC[C@H]4C(C)(C)[C@@H](O[C@@H]5OC(COC6OC(CO)C(O)C(O)C6O)C(O)C(O)C5O)CC[C@@]45C[C@@]35CC(O)[C@]12C)C(=O)OC1OC(CO)C(O)C1O (stereo not given in full),-0.4,-1.1
C[C@H]1CN([C@@H](C)CO)C(=O)c2cc(NS(C)(=O)=O)ccc2O[C@H]1CN(C)Cc1ccc(C(=O)Nc2ccccc2N)cc1,.,14.8
C[C@@H]1CN([C@H](C)CO)C(=O)c2cc(NC(=O)Cc3cn(C)c4ccccc34)ccc2O[C@@H]1CN(C)Cc1ccccc1,0.3,-4.6
Cc1nc2sc3c(NC4CCCCC4)ncnc3c2c2c1COC(C)(C)C2,.,7.7
C[C@H](CO)N1C[C@H](C)[C@H](CN(C)S(=O)(=O)c2ccc(Cl)cc2)Oc2c(NS(=O)(=O)c3ccc(Cl)cc3)cccc2C1=O,.,-2.6
O=C(NCCOc1ccccc1-c1ccccc1)c1ccco1,0.4,0.7
Cc1cc(C(=O)Nc2cccc3c2O[C@H](CN(C)Cc2ccc(Cl)c(Cl)c2)[C@@H](C)CN([C@@H](C)CO)C3=O)n(C)n1,.,-0.4
C[C@H](CO)N1C[C@H](C)[C@@H](CN(C)Cc2ccncc2)Oc2c(NC(=O)c3cnccn3)cccc2C1=O,.,10.0
CCc1ccc(-n2c(=S)sc3c(=O)n(-c4ccccc4)c(SCC#N)nc32)cc1,0.0,1.8

These rows are one share of the data (hit frequency here may not be typical).
